Screening results from PubChem.
LANA-H2B inh: blocks KSHV LANA binding to histone H2A/H2B; Q9QR71; cell-free LANA-H2A/H2B peptide, fluorescence polarization; inhibition, % (no concentration beside the values); 320,000 tested, 0.6% active; in the data active = inhibition mostly above about 10%, no sharp cut-off; inactive = mostly below about 6.7%;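 note: stock transfer was 7.5 nL into about 10 µL; 0% = median of vehicle wells and 100% = median of positive control wells; one replicate is shown; the record names a cut of 25% in any replicate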
Target sequence (Q9QR71 whole entry, looked up): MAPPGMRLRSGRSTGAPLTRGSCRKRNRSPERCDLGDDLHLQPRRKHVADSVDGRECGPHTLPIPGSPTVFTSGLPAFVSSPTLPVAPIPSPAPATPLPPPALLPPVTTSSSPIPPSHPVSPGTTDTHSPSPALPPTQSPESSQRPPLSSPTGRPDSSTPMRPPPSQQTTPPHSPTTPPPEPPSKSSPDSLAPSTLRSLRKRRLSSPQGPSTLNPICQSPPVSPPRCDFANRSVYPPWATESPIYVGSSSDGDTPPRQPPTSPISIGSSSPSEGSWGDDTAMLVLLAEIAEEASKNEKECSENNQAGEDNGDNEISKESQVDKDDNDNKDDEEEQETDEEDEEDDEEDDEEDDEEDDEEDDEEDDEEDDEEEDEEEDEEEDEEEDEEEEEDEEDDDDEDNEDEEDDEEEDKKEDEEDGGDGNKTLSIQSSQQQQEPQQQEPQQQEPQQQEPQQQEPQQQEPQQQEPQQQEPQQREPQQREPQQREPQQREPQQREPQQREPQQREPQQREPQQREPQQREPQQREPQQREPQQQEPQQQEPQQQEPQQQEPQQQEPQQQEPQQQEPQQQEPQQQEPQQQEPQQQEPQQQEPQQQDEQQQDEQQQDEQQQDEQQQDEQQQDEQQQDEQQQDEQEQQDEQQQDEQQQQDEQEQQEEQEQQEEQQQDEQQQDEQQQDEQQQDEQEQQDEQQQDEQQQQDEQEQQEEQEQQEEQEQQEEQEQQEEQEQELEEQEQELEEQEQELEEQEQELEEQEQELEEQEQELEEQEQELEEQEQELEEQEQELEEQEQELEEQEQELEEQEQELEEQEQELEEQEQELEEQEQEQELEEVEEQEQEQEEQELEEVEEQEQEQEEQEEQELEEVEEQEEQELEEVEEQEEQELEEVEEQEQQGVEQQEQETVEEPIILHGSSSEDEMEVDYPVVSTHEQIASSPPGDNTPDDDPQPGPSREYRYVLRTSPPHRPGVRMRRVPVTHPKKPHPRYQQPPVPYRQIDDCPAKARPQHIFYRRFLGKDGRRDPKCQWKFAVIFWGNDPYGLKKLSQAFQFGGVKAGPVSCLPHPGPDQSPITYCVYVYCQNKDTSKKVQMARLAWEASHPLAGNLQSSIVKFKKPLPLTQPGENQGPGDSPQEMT
HNF4A DNA FP: change in binding of human HNF4 alpha to DNA; activity change, % at 10 µM; P41235; 360,000 tested, 0.3% active; HNF4a-FITC DNA binding, fluorescence polarization, 1 h; in the data active = activity change above about 30%, passing the limit was not always enough;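 note: controls were the assay level and a saturating level of protein; the project sought stronger binding though the title names inhibitors; some compounds called inactive have numbers as strong as hits; positive values seem to mean higher polarization but the record does not say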
Vif A3G: HIV-1 Vif–A3G interaction blockers – biochemical, TR-FRET, GST-Vif 1-94, biotin-A3G peptide, dose response retest, primary screen (AID 1117319); inhibition, %, or IC50 in µM where a hit was titrated; 260,000 tested, 0.57% active; TR-FRET GST-Vif / biotin-A3G peptide binding; higher % means a stronger effect; test concentration not given here; strong numbers were not always called active;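 active = above the screen mean plus three standard deviations and confirmed in dose response; inconclusive = results disagree or hit not tested in dose response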;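 note: Vif residues 1-94 fused to GST binding biotinylated APOBEC3G peptide 110-148; 0% = full assay without inhibitor and 100% = GST in place of GST-Vif; retest series ran down from 100 µM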
E coli growth: E. coli growth inhibition. Escherichia coli growth, OD600, 23 h; hits give low values. OD600 absorbance (no concentration beside the values). 330,000 tested, 0.21% active;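 active = OD600 absorbance below the run mean of sample wells minus 3.6 SD, in any replicate, cut at about 0.56 in these data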;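 note: stock transfer was 300 nL into about 60 µL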
B2AR ag: human beta-2 adrenergic receptor agonism by FAP; P07550; Am2.2-beta2AR cells, FAP receptor internalization, flow cytometry; reference of the scale not given here; response, % (test concentration not listed); 340,000 tested, 0.43% active; AID 504454;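 active = response above a set limit, near 3 SD of response in nonfluorescent compounds, cut at about 42% in these data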;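 note: stock transfer was 100 nL into about 11 µL; a reference agonist was the positive control; negative values mostly stem from fluorescent compounds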
UCH37 DUB inh: inhibitors of human deubiquitinating enzyme UCH37; inhibition, % (test concentration not listed); Q9Y5K5; purified proteasome/UCH37, Ub-AMC cleavage fluorescence; 330,000 tested, 0.33% active;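 active = mean of two replicates above 20%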;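 note: 0% = compound-free wells with enzyme and 100% = wells lacking proteasome; stock transfer was 100 nL into about 20 µL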
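Material: Human UCH37 enzyme supplied as purified proteasome complex | Schedule: 30 min compound-proteasome preincubation then 25 min substrate reaction, room temperature | Detection: AMC fluorescence from Ub-AMC cleavage, excitation 355 nm, emission 460 nm | Benchmarks: Wells without proteasome as full block, compound-free enzyme plus substrate as uninhibited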
Bfl-1 A1 inh: inhibitors of the anti-apoptotic protein A1, read as caspase activation; caspase activation, % (no concentration beside the values); MEF A1-2A-BIM cells, Caspase-Glo 3/7 luminescence, 3 h; percent of clofoctol response, vehicle zero; 330,000 tested, 0.066% active;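 active = over half of replicate activation scores above 10%, or exactly half above 10 with the replicate mean above 10; inconclusive = replicate mean below 10 yet half the replicates above 10; inactive = over half of replicates below 10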;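 note: wells of about 30 µL received 50 nL stock; many hits fall short of the cut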
* marks the source's active call; other numbers are inactive results; u = inconclusive; x = not tested or not shown; & = joins results of further samples.

SMILES | LANA-H2B inh | HNF4A DNA FP | Vif A3G | E coli growth | B2AR ag | UCH37 DUB inh | Bfl-1 A1 inh
CC1CCN(Cc2csc(N)n2)CC1 | 4.9 | 3.7 | 3.4% | 0.654 | 1.7 | -3.0 | -0.6
Cc1ccc(N(C(=O)c2snc(C(N)=O)c2N)C(C(=O)NC2CCCC2)c2ccc(C)o2)cc1 (stereo not drawn) | 0.8 | -2.0 | x | 0.656 | 11.3 | -57.1 | -0.3
O=C(NCCS(=O)(=O)N1CCN(Cc2ccccc2)CC1)c1ccc(F)cc1 | -4.4 | -2.1 | -7.1% | 0.674 | 3.2 | 0.3 | 0.3
CCN(CC)C(=O)CCc1nc2sc3c(c2c(=O)[nH]1)CCCC3 | -0.9 | -0.7 | 19.1% | 0.698 | -18.7 | 1.3 | -0.4
CC(C)(C)C1CCc2c(C(=O)NNC(=O)CCC(=O)O)csc2C1 (stereo not drawn) | 0.0 | 0.8 | -3.3% | 0.698 | 39.9 | 5.5 | -0.1
CCCCC(=O)Nc1nnc(SCC(=O)NC2CC2)s1 | 7.5 | -1.9 | x | 0.654 | 2.3 | 0.0 | -0.6
COc1ccccc1C(c1nnnn1C(C)(C)C)N1CCCCCC1 (stereo not drawn) | -3.5 | -7.4 | 13.1% | 0.647 | 0.5 | 13.8 | -0.8
Cc1nn(-c2ccccc2)c(Cl)c1C(=O)OCC(=O)N(C)c1c(N)n(Cc2ccccc2)c(=O)[nH]c1=O | -3.1 | 3.2 | 6.8% | 0.693 | -4.5 | 7.5 | 0.4
CCCCSc1nnc2n(CCc3ccccc3)c(=O)c3c4c(sc3n12)COC(C)(C)C4 | -10.8 | 0.2 | -4.1% | 0.726 | 13.9 | -0.3 | 0.5
CC(C)Sc1nc2ccccc2n1CC(=O)NCc1ccc2c(c1)OCO2 | -8.1 | -0.6 | 1.1% | 0.664 | 3.3 | 1.7 | 1.2
COc1ccc(-c2noc(N3CCC(C(=O)N4CCN(c5ccccn5)CC4)CC3)n2)cc1 | 4.3 | 1.8 | 0.6% | 0.712 | -4.3 | 1.7 | -0.4
O=C(CN(Cc1cccs1)C(=O)CNS(=O)(=O)c1ccc(F)cc1)NCc1ccco1 | 11.9 | -0.6 | -0.5%&-4.0% | 0.717 | 0.9 | 2.1 | 0.1
NC(=S)n1[nH]c(-c2ccccc2)c(N=Nc2ccccc2C(=O)N2CCOCC2)c1=O | -1.0 | 2.2 | -4.7% | 0.708 | -9.3 | 53.7* | -0.4
CSc1ncccc1C(=O)OCC(=O)N(C)C1CCS(=O)(=O)C1 (stereo not drawn) | -9.6 | -5.2 | 8.4% | 0.726 | -0.8 | -1.2 | 0.5
O=C(c1ccc(Cl)c(Cl)c1)N1CCC(=O)N(C(COCc2ccc(Cl)cc2)Cc2ccccc2)CC1 (stereo not drawn) | -0.2 | -0.8 | 30.8% | 0.705 | 0.6 | -0.1 | -0.5
CCOc1ncccc1C(=O)N(CC)CC(=O)NCc1ccc(Cl)cc1 | -2.2 | -3.3 | x | 0.71 | -1.3 | -0.6 | 0.5
COc1ccccc1NC(=O)N[C@@H](Cc1c[nH]c2ccccc12)C(=O)NN | 4.6 | 2.4 | 4.3% | 0.686 | -2.4 | 1.9 | -0.1
CSc1ncccc1C(=O)NC1CCCCCC1 | -2.0 | 2.7 | -2.1% | 0.636 | -121.2 | 0.1 | 0.3
Cc1ccc(S(=O)(=O)CCc2nc3ccccc3n2CCC#N)cc1 | 8.0 | -4.2 | 0.6% | 0.716 | 3.9 | -0.7 | 0.1
COc1ccc(NC(=O)c2sccc2C)c([N+](=O)[O-])c1 | 3.5 | -1.2 | 0.2% | 0.724 | -11.8 | 0.7 | 0.2

Five of the entries above in order of the HNF4A DNA FP value, lowest first:
smiles | HNF4A DNA FP
CSc1ncccc1C(=O)OCC(=O)N(C)C1CCS(=O)(=O)C1 (stereo not drawn) | -5.2
Cc1ccc(S(=O)(=O)CCc2nc3ccccc3n2CCC#N)cc1 | -4.2
COc1ccc(-c2noc(N3CCC(C(=O)N4CCN(c5ccccn5)CC4)CC3)n2)cc1 | 1.8
COc1ccccc1NC(=O)N[C@@H](Cc1c[nH]c2ccccc12)C(=O)NN | 2.4
CSc1ncccc1C(=O)NC1CCCCCC1 | 2.7

(more compounds)
SMILES | LANA-H2B inh | HNF4A DNA FP | Vif A3G | E coli growth | B2AR ag | UCH37 DUB inh | Bfl-1 A1 inh
O=C(C1CCN(S(=O)(=O)c2ccccc2)CC1)N1CCc2ccccc21 | 0.4 | 2.9 | -12.9% | 0.7 | -0.7 | -1.1 | -0.2
CCC(CC)C(=O)c1c[nH]c(C(=O)NCCCN2CCOCC2)c1 | -2.3 | 1.3 | u | 0.677 | -1.5 | 2.9 | 1.9
COc1ccc(Cl)cc1N(CC(=O)N1CCCC1)S(=O)(=O)c1ccc(C)cc1 | -0.9 | 3.6 | x | 0.723 | -3.9 | 1.3 | 0.6
Cc1ccc(C(C(=O)NCC2CCCO2)N(C(=O)c2snc(C(N)=O)c2N)c2ccccc2)o1 (stereo not drawn) | 0.3 | -0.7 | -2.6% | 0.66 | 11.8 | -106.6 | 0.7
Cc1cc(OCCn2ccnc2)cc(C)c1Cl | -0.7 | -0.7 | x | 0.616 | -5.8 | 3.4 | 1.1
O=C(Nc1ccc(N2CCOCC2)c(Cl)c1)c1cccc(-n2cnnc2)c1 | 3.1 | 1.4 | x | 0.709 | 8.4 | -1.0 | -0.5
CC(=O)Nc1ccc(NC(=O)c2ccc(-c3ccc([N+](=O)[O-])cc3)o2)cc1 | 0.7 | -16.3 | -7.4% | 0.734 | 8.5 | 7.3 | 0.8
O=C(O)CCc1nn2cnc3sc4c(c3c2nc1=O)CCCC4 | 0.6 | 0.4 | u | 0.704 | 2.9 | -0.3 | 0.8
COc1ccc(CCNC(=O)Cc2ccc(NC3=NC4CS(=O)(=O)CC4S3)cc2)c(OC)c1 (stereo not drawn) | -6.1 | 0.7 | x | 0.81 | 3.8 | 1.0 | x
O=C(CCNS(=O)(=O)c1ccc2c(c1)CCC(=O)N2)Nc1ccc(F)c(F)c1 | -1.1 | 3.0 | x | 0.619 | 5.9 | 2.1 | -0.5

Rewritten as tab-separated lines: entries from further up
molecule	LANA-H2B inh	HNF4A DNA FP	Vif A3G	E coli growth	B2AR ag	UCH37 DUB inh	Bfl-1 A1 inh
CCC(CC)C(=O)c1c[nH]c(C(=O)NCCCN2CCOCC2)c1	-2.3	1.3	u	0.677	-1.5	2.9	1.9
COc1ccc(Cl)cc1N(CC(=O)N1CCCC1)S(=O)(=O)c1ccc(C)cc1	-0.9	3.6	x	0.723	-3.9	1.3	0.6

Next results follow.
SMILES | LANA-H2B inh | HNF4A DNA FP | Vif A3G | E coli growth | B2AR ag | UCH37 DUB inh | Bfl-1 A1 inh
CN1CCOCCOCCOCCN(C)C1=S | 0.7 | 2.3 | -3.3% | 0.625 | 2.3 | 0.1 | 1.3
CC(C)c1noc2ncc(C(=O)c3cc(Cl)cc(Cl)c3O)cc12 | 6.3 | -1.7 | u | 0.754 | 1.4 | -4.1 | 2.0
O=C(COC(=O)c1ccco1)NC1CCCC1 | 1.1 | -2.6 | -1.4% | 0.637 | -0.2 | -0.8 | 0.5
CCc1noc(C)c1C(=O)OCC(=O)NCc1ccccc1 | 2.3 | 0.9 | x | x | -7.8 | x | -0.9
O=C(COC(=O)Cc1ccsc1)Nc1ccccc1Cl | -3.1 | -1.4 | 15.1% | 0.657 | -4.9 | 4.1 | 0.0
CCCCNC(=O)c1onc(CSc2cc(C)cc(C)c2)c1C(=O)NCCCC | 1.0 | -5.9 | x | 0.698 | -2.4 | -0.6 | 0.6
Cn1c(=NC(=O)COc2ccccc2)sc2cc(F)cc(F)c21 | -2.8 | x | 7.2% | 0.689 | x | 2.0 | -0.7
COc1ccc(C(=O)c2ccc([N+](=O)[O-])cc2)c(OC)c1OC | x | 2.3 | -2.8% | 0.648 | -3.0 | 3.4 | x
COc1ccc(N(CC(=O)NC2CCCC2)S(=O)(=O)c2c(C)[nH]c(=O)[nH]c2=O)cc1 | -2.5 | -2.1 | 1.9% | 0.694 | 6.2 | 0.8 | 0.2
COC(=O)C(C(=O)OC)c1ccc(NC(=O)c2cccc(Cl)c2)cc1 | x | -1.8 | -1.8% | 0.755 | 11.1 | 5.3 | -0.3
O=C(Cc1ccccc1)Nc1ccc(NC(=O)C2CCCCC2)nc1 | -0.2 | -8.4 | x | 0.654 | -14.5 | 1.1 | -0.2
CCC12CN(C(=O)c3ccc([N+](=O)[O-])cc3)CC(CC)(CN(C(=O)c3ccc([N+](=O)[O-])cc3)C1)C2=O | -5.1 | -4.5 | -5.2% | 0.641 | -6.6 | 9.2 | -0.2
O=C(O)c1nn(Cc2ncc(-c3cccc(Cl)c3)o2)c(=O)c2ccccc12 | 0.9 | 2.9 | -9.7% | 0.671 | -3.1 | 3.3 | -0.4
c1cc2c(cc1OCCNC1CCCC1)CCC2 | -1.2 | x | -6.5% | 0.656 | x | 1.5 | 1.3
O=C(N/N=C/c1cc(Cl)ccc1O)c1cccnc1 | 2.5 | -3.9 | x | x | 13.6 | x | -1.7
Cc1cc(C)cc(C(=O)NC(CC(N)=O)c2ccc(NC3CCCC3)c([N+](=O)[O-])c2)c1 (stereo not drawn) | -0.6 | 2.0 | x | 0.716 | -4.0 | 1.4 | 1.2
CC(=O)c1cccc(CN2CCC(C(=O)Nc3ccc(-c4cccc(C)c4)cc3)CC2)c1 | 1.6 | -3.2 | x | 0.644 | -5.5 | 3.5 | 0.3
CN1CCN(/C=C(\C#N)S(=O)(=O)c2ccc(Cl)cc2)CC1 | 1.8 | 3.9 | 66.5% | 0.643 | 10.7 | 0.2 | 1.2
O=[N+]([O-])c1ccc2n[nH]nc2c1 | 3.3 | -3.5 | 0.3% | 0.727 | -5.8 | 3.9 | -0.7
O=C(CSc1cccc[n+]1[O-])c1cc(Cl)ccc1Cl | -4.7 | 4.9 | -0.1% | 0.123* | -2.5 | 2.6 | -0.5
OCCn1c(-c2ccc(F)cc2)csc1=Nc1ccccc1 | 2.8 | 3.1 | -4.6% | 0.672 | -0.9 | 2.9 | 1.4
CCC(=O)c1ccc(OCC(=O)OCC(=O)N2CCc3ccccc3C2)cc1 | -3.7 | 5.2 | -9.7% | 0.623 | 1.2 | 0.5 | -0.4
CC(=O)Oc1cccc(C(=O)Nc2c[nH]c(=O)[nH]c2=O)c1 | 4.8 | 0.3 | 1.0% | 0.673 | -4.3 | 0.5 | -0.2
COc1ccc(-c2nc(N)ncc2-c2ccc(Cl)cc2)c(O)c1 | -15.4 | 1.9 | -76.3% | 0.682 | -2.9 | 0.4 | -0.4
CCN(CC)S(=O)(=O)c1cc(NS(=O)(=O)c2cc(Cl)ccc2Cl)ccc1C | -1.2 | -1.5 | 2.3% | 0.666 | 2.9 | 2.6 | 0.0
CN(CCOc1ccc(Cl)cc1)C(=O)c1cccc(S(=O)(=O)N2CCN(Cc3ccccc3)CC2)c1 | x | -0.8 | x | 0.68 | -3.9 | 1.8 | x
O=C(Nc1nsc(-c2ccccc2)n1)c1ccc(F)cc1 | -10.9 | -0.7 | u | 0.667 | -15.4 | -0.6 | -4.2
Cc1[nH]n(-c2ccccc2)c(=O)c1N=Nc1ccccc1C(=O)N1CCOCC1 | 6.4 | -0.7 | 23.7% | 0.661 | -1.3 | 12.3 | -0.3
COC(=O)C1=C(O)/C(=C\c2sccc2C)N=C1C | -8.1 | -3.7 | -3.4% | x | -3.2 | 1.5 | -1.1
Cc1cc(OCC(=O)NC(C)c2ccccc2)ccc1[N+](=O)[O-] (stereo not drawn) | -2.1 | -0.5 | 6.4% | 0.648 | -0.9 | 5.1 | -0.8
